# RecA splice inh: blocks M. tuberculosis RecA intein splicing. cell-free RecA intein splicing, fluorescence. 0.75% of 290,000 active. P9WHJ3. inhibition, %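 (about 9 µM by stock and volumes)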; in the data active = inhibition above about 30%; inconclusive = no clear call, values can overlap the other calls;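 note: 0% = vehicle wells and 100% = reference inhibitor control wells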
# Target sequence (P9WHJ3 whole entry, looked up, canonical isoform): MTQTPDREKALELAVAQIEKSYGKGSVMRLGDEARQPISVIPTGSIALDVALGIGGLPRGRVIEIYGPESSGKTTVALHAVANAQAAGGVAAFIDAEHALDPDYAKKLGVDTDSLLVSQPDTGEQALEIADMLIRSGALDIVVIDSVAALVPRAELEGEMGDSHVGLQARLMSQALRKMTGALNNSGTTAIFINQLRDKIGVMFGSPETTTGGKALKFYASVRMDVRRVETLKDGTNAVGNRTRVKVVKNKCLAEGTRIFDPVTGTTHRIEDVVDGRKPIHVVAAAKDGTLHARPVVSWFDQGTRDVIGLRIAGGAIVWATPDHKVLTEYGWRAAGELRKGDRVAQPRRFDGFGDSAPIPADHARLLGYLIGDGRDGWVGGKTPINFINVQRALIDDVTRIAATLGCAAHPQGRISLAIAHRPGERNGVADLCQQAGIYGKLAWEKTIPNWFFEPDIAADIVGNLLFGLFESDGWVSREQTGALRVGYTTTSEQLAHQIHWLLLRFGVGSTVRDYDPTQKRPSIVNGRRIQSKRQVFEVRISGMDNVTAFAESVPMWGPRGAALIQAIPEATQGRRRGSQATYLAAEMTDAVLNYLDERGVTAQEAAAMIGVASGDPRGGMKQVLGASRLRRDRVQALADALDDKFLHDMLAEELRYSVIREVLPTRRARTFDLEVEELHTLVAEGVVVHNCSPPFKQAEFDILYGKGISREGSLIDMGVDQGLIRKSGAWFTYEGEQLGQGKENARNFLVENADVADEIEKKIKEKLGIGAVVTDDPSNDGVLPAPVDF
# Mtb betalactam: beta-lactam sensitization of Mtb H37Rv. M. tuberculosis H37Rv growth with meropenem, percent inhibition; hits of this screen are not shown here. 0.27% of 330,000 active. inhibition, % at 25 µM;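 active = about 74% or more and at least 40 points above the plate without the antibiotic, then above 30% in a dose series; inconclusive = first-round hits that could not be retested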;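 note: growth measured after seven days incubation then overnight dye step; 0% = bacteria only wells and 100% = bacteria with antibiotic; twin plates without the antibiotic show which effects depend on it; some results filed as inactive read as strong as hits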
# * hit, by the source's call; ? = inconclusive; / = no result given.
SMILES,RecA splice inh,Mtb betalactam
CN(C)c1cccc(NC(=O)NC2(C)CCS(=O)(=O)C2)c1 (stereo not given),0.2,/
CCn1c(COc2cccc(OC)c2)nnc1SCC(=O)NC1CCCC1,2.1,/
Cc1ccc(S(=O)(=O)N(CC(=O)Nc2ccc(Cl)cc2)C(=O)N2CCN(C)CC2)cc1,3.0,/
COc1ccccc1CN1CC(C(=O)NCc2ccc(SC)cc2)CCC1=O (stereo not given),2.8,/
Cc1noc(C)c1NC(=O)N(C)C[C@H]1Oc2ccc(NC(=O)c3ccncc3)cc2C(=O)N([C@H](C)CO)C[C@@H]1C,/,5
C/C=C(\NC(C)=O)c1ccccc1,/,-2
O=C(NN=Cc1ccc(F)c(F)c1)c1ccc(NS(=O)(=O)c2cccs2)cc1,/,2
COc1ccc(CCC(=O)OCC(=O)Nc2sccc2C#N)cc1,/,4
O=S(=O)(c1ccccc1)N1CCN(c2ncnc3scc(-c4ccccc4)c23)CC1,/,4
O=C(OCc1c(-c2ccccc2)ncc2ccccc12)c1ccc(F)cc1,/,10
CC(=NNC(=O)c1cccs1)c1ccc2c(c1)OCCO2,/,0
Cc1ccc(C(=O)CCC(=O)Nc2ccc(C)cn2)cc1,/,4
COc1ccc(CCNC(=O)C(C)SCC(=O)Nc2ccc(F)cc2)cc1 (stereo not given),/,-6
Cc1c(C(=O)OC(C)C(=O)N(C)Cc2ccccc2)oc2ccccc12 (stereo not given),/,-3
CCC1CCCCN1C(=O)COc1ccc(S(=O)(=O)N2CCOCC2)cc1Cl (stereo not given),/,-3
Cc1ccn2c(NCc3ccccc3)c(-c3cccc(SC4CCCCC4)c3)nc2c1,/,2
NC(=O)C1CN(C(=O)c2cccc(S(=O)(=O)N3CCc4ccccc43)c2)c2ccccc2O1 (stereo not given),/,-12
CCCSc1ccc([C@H]2N[C@@](CC(C)C)(C(=O)OC)[C@H]3C(=O)N(CC)C(=O)[C@@H]23)cc1,/,-4
O=C1C=C(O)c2c(O)cccc2C1=O,/,-4
COc1ccccc1CCN1CCCC(CN(C)CC(C)(C)CO)C1 (stereo not given),/,-6
CC(C)(C)OC(=O)C[C@@H]1C/C=C\C[C@@H](CC(=O)NCCO)C(=O)N[C@H](C(C)(C)C)COC1=O,/,-5
O=C(NCc1cccc(F)c1)c1cccc2c1C(=O)c1ccc(Cl)cc1S2(=O)=O,/,3
CC(C)(C)[C@H]1COC(=O)[C@H](NC(=O)OCC2c3ccccc3-c3ccccc32)C/C=C\C[C@@H](CC(=O)N[C@H](CO)Cc2ccccc2)C(=O)N1,/,4
CCN(C(=O)COC(=O)CCNS(=O)(=O)c1ccccc1F)c1c(N)n(Cc2ccccc2)c(=O)[nH]c1=O,/,-2
O=C(COC(=O)c1cccs1)Nc1ccc(Cl)cn1,/,6
CCC1(c2ccc(F)cc2)NC(=O)N(CC(=O)NC2CCCCCC2)C1=O (stereo not given),/,4
C[C@H](CO)N1C[C@H](C)[C@@H](CN(C)S(C)(=O)=O)Oc2ccc(NC(=O)Nc3ccc(C(F)(F)F)cc3)cc2C1=O,/,-3
CCN(C[C@H]1N[C@@](CC)(C(=O)OC)[C@H]2C(=O)N(Cc3ccccc3)C(=O)[C@@H]12)C(=O)c1ccc(C)cc1,/,1
O=C(NNC(=O)c1ccncc1)Nc1ccccc1,/,-12
COc1ccc(NC(=O)Cc2ccsc2)cc1S(=O)(=O)N1CCCCC1,/,-6
NS(=O)(=O)c1ccc(CCNC(=O)c2ccc(Cl)c(S(=O)(=O)N3CCCCC3)c2)cc1,/,2
CC1=CC(=O)C=C/C1=C(/c1ccc(O)cc1C)c1ccccc1S(=O)(=O)O,/,-6
Cc1cccc(C(C)C)c1NC(=O)CSc1cccc[n+]1[O-],/,-5
COc1ccc(Cl)cc1NC(=O)CN(C)C(=O)CCSc1ccc(C)cc1,/,1
CCCn1nc(C(=O)Nc2nnc(C3CC3)s2)c2ccccc2c1=O,/,-5
O=C(NCC(=O)N1CCN(C(=O)c2ccccc2)CC1)c1ccccc1,/,-2
C[C@]1(O)CCC2C3CC[C@@H]4CC(=O)CC[C@]4(C)C3CC[C@@]21C (stereo not given in full),/,11
CN(C)C(=O)c1ccc(NC(=O)c2ccc(-c3ccc(Cl)cc3)o2)cc1,/,63
COc1ccc(C2=CC(=O)CC(C)(C)C2)cc1,/,4
COc1ccccc1NC(=O)COC(=O)c1[nH]c(=O)[nH]c(=O)c1N,/,3
CCCCN1C(=O)C(=O)c2cc(Cl)ccc21,/,7
CCCCN1CC(=O)N2[C@H]3c4cc(Cl)ccc4OC[C@@H]3[C@H](C(=O)OCC)[C@]2(C)C1=O,/,-1
O=C(O)c1cccc(-c2noc(-c3cccc(Cl)c3)n2)c1,/,-4
Cc1ccccc1C(=O)N1CCC(C(=O)OCc2nc(N)nc(Nc3ccccc3)n2)CC1,/,-5
O=C(CN1C(=O)NC2(CCCCCC2)C1=O)NCCc1ccc(F)cc1,/,-7
CC(=O)Nc1ccc(S(=O)(=O)N(C)CC(=O)NC2CCCCCCC2)cc1,/,-14
COc1cc2c(cc1OC)C(C)NCC2 (stereo not given),/,1
CCC(O)(C(=O)Nc1ccccc1C(F)(F)F)c1ccccc1OC (stereo not given),/,8
Cc1noc(C)c1NC(=O)Nc1ccc2c(c1)C(=O)N([C@H](C)CO)C[C@H](C)[C@@H](CN(C)C(=O)NC(C)C)O2,/,-7
O=C(NC1CCCC1)c1cc(-c2ccccc2)on1,/,-1

# Laid out differently: entries from further up.
smiles | RecA splice inh | Mtb betalactam
O=C(CN1C(=O)NC2(CCCCCC2)C1=O)NCCc1ccc(F)cc1 | / | -7
CC(=O)Nc1ccc(S(=O)(=O)N(C)CC(=O)NC2CCCCCCC2)cc1 | / | -14
COc1cc2c(cc1OC)C(C)NCC2 (stereo not given) | / | 1

# (cont.)
SMILES,RecA splice inh,Mtb betalactam
COc1ccc(Nc2nnc(SC(C)C(=O)NC3CC3)s2)cc1 (stereo not given),/,2
C[C@@H](NC(=O)C1(c2ccccc2)CCN(C(=O)OC(C)(C)C)CC1)C(=O)N[C@@H](C(=O)O)c1ccccc1,/,1
Nc1ccc(S(=O)(=O)NCC(=O)OC2CCOC2=O)cc1[N+](=O)[O-] (stereo not given),/,5
COc1ccc([C@H]2CC(=O)C=C(c3cccc(CO)c3)C2)cc1,/,-7
N#Cc1ccccc1Oc1ccc(S(=O)(=O)N2CCCCC2)cn1,/,-8
O=C(CCNC(=O)c1ccc(Cl)cc1)NN1C(=O)NC2(CCCCC2)C1=O,/,-3
CC(=O)Nc1cccc(C(=O)Nc2cccc(S(=O)(=O)NCc3ccco3)c2)c1,/,6
Cc1cc(=O)oc2cc(OCc3ccc(C(=O)OCC(=O)N(C)C4CCS(=O)(=O)C4)cc3)ccc12 (stereo not given),/,1
C[C@H](NCCc1ccc(O)cc1)[C@H](O)c1ccc(O)cc1,/,2
CCCC(C)NC(=O)Cc1ccc(S(=O)(=O)N2CCOCC2)s1 (stereo not given),/,-3
CC1CCCC(C)N1C(=O)COC(=O)COc1ccc(C#N)cc1 (stereo not given),/,3
CC(=O)NC12CC3CC(C1)CC(C(=O)NCC(=O)Nc1c(C)cc(C)cc1C)(C3)C2,/,7
O=c1ccc2c(O)c3ccoc3cc2o1,/,-5
COc1ccc(NC(=O)CN2C(=O)NC(C)(C3CC3)C2=O)cc1S(=O)(=O)N1CCOCC1 (stereo not given),/,6
CC(OC(=O)c1cccc([N+](=O)[O-])c1)C(=O)N1CCc2ccccc21 (stereo not given),/,-5
O=C(Nc1cc(C(F)(F)F)ccc1-n1cncn1)c1cn2ccccc2n1,/,2
O=C(COc1cc(F)ccc1[N+](=O)[O-])NCC1CCCO1 (stereo not given),/,0
O=C(COc1ccc(Cl)cc1)Nc1cccc(S(=O)(=O)NCc2ccco2)c1,/,3
CCC(CO)Oc1cc(NCc2ccc(Cl)cc2Cl)c2ncn(C(C)C)c2c1 (stereo not given),/,17
COc1ccc(C(=O)COC(=O)CNC(=O)c2ccccc2)cc1F,/,-6
O=C(Nc1ccnn1C1CCN(Cc2cccc(OCCO)c2)CC1)C1CC1,/,?
Cc1ccc(C)c(NC(=O)CN(C)C(=O)CC2OC(=O)c3ccccc32)c1 (stereo not given),/,0
O=[N+]([O-])c1cccc2c(S(=O)(=O)N3CCOCC3)cccc12,/,8
CC1c2cc3c(cc2CCN1CC(=O)Nc1ccccc1)OCCCO3 (stereo not given),/,-4
CCN(CC(=O)NC1CCS(=O)(=O)C1)C(=O)c1ccc(S(=O)(=O)N(CC)CC)cc1 (stereo not given),/,-13
CC1CC(C)CN(C(=O)c2ccc3c(c2)OCCO3)C1 (stereo not given),/,-1
CN1CCN(S(=O)(=O)c2cccc(C(=O)NC3(C)CCS(=O)(=O)C3)c2)CC1 (stereo not given),/,-1
CCOc1ccc(Cn2nnc(-c3ccc(S(C)(=O)=O)cc3)n2)cc1OCC,/,-3
C[C@H](CO)N1C[C@H](C)[C@@H](CN(C)Cc2ccc3c(c2)OCO3)Oc2c(NC(=O)C3CCCCC3)cccc2C1=O,/,-2
COc1ccc(Cl)cc1NC(=O)COC(=O)C1CC(=O)N(Cc2ccccc2)C1 (stereo not given),/,3
CCCOc1ccc(C(=O)Nc2ccc(N3CCN(C(=O)c4ccco4)CC3)cc2)cc1,/,5
N#Cc1cccc(NC(=O)CN2C(=O)NC3(CCCCCC3)C2=O)c1,/,-3
Cc1ccsc1C(=O)N1CCc2ccccc2C1,/,-1
CC(C)N(CCn1c(SCC(=O)Nc2cccnc2Cl)nc2ccccc2c1=O)C(C)C,/,1
COc1ccc(NC(=O)c2ccc(N3CCCC3=O)cc2)cc1Cl,/,-7
CON(C)S(=O)(=O)c1cccc(C(=O)NC2CCSc3ccccc32)c1 (stereo not given),/,-11
CN(CC(=O)Nc1cccc(F)c1)C(=O)CN1C(=O)NC2(CCCC2)C1=O,/,6
O=C(COC(=O)COc1ccccc1[N+](=O)[O-])Nc1ccc2c(c1)OCO2,/,-7
CCOc1ccccc1/C=N/NC(=O)C[n+]1ccccc1,/,-3
CCC1(C)NC(=O)N(CC(=O)N2CCC(Cc3ccccc3)CC2)C1=O (stereo not given),/,-6
COc1ccc(S(=O)(=O)N2CCOCC2)cc1NC(=O)CN1C(=O)NC2(CCCCC2C)C1=O (stereo not given),/,-3
CCOC(=O)C1CCCN(C(=O)c2ccc(C(=O)c3ccccc3)cc2)C1 (stereo not given),/,-1

# Entries from the list above with nitrogen in an aromatic ring (24):
SMILES,RecA splice inh,Mtb betalactam
CCn1c(COc2cccc(OC)c2)nnc1SCC(=O)NC1CCCC1,2.1,/
Cc1noc(C)c1NC(=O)N(C)C[C@H]1Oc2ccc(NC(=O)c3ccncc3)cc2C(=O)N([C@H](C)CO)C[C@@H]1C,/,5
O=S(=O)(c1ccccc1)N1CCN(c2ncnc3scc(-c4ccccc4)c23)CC1,/,4
O=C(OCc1c(-c2ccccc2)ncc2ccccc12)c1ccc(F)cc1,/,10
Cc1ccc(C(=O)CCC(=O)Nc2ccc(C)cn2)cc1,/,4
Cc1ccn2c(NCc3ccccc3)c(-c3cccc(SC4CCCCC4)c3)nc2c1,/,2
CCN(C(=O)COC(=O)CCNS(=O)(=O)c1ccccc1F)c1c(N)n(Cc2ccccc2)c(=O)[nH]c1=O,/,-2
O=C(COC(=O)c1cccs1)Nc1ccc(Cl)cn1,/,6
O=C(NNC(=O)c1ccncc1)Nc1ccccc1,/,-12
Cc1cccc(C(C)C)c1NC(=O)CSc1cccc[n+]1[O-],/,-5
CCCn1nc(C(=O)Nc2nnc(C3CC3)s2)c2ccccc2c1=O,/,-5
COc1ccccc1NC(=O)COC(=O)c1[nH]c(=O)[nH]c(=O)c1N,/,3
O=C(O)c1cccc(-c2noc(-c3cccc(Cl)c3)n2)c1,/,-4
Cc1ccccc1C(=O)N1CCC(C(=O)OCc2nc(N)nc(Nc3ccccc3)n2)CC1,/,-5
Cc1noc(C)c1NC(=O)Nc1ccc2c(c1)C(=O)N([C@H](C)CO)C[C@H](C)[C@@H](CN(C)C(=O)NC(C)C)O2,/,-7
O=C(NC1CCCC1)c1cc(-c2ccccc2)on1,/,-1
COc1ccc(Nc2nnc(SC(C)C(=O)NC3CC3)s2)cc1 (stereo not given),/,2
N#Cc1ccccc1Oc1ccc(S(=O)(=O)N2CCCCC2)cn1,/,-8
O=C(Nc1cc(C(F)(F)F)ccc1-n1cncn1)c1cn2ccccc2n1,/,2
CCC(CO)Oc1cc(NCc2ccc(Cl)cc2Cl)c2ncn(C(C)C)c2c1 (stereo not given),/,17
O=C(Nc1ccnn1C1CCN(Cc2cccc(OCCO)c2)CC1)C1CC1,/,?
CCOc1ccc(Cn2nnc(-c3ccc(S(C)(=O)=O)cc3)n2)cc1OCC,/,-3
CC(C)N(CCn1c(SCC(=O)Nc2cccnc2Cl)nc2ccccc2c1=O)C(C)C,/,1
CCOc1ccccc1/C=N/NC(=O)C[n+]1ccccc1,/,-3

# Screening data from PubChem BioAssay.

# Not all compounds are listed; rates above refer to the full screens.
